RGS16-Gao – modulators of RGS16 binding to Galphao, primary screen, biochemical, human proteins, multiplexed bead flow cytometry | Regulator of G-protein signaling 16 (Homo sapiens) + Guanine nucleotide-binding protein … | 220,000 compounds, 0.38% hits | bead-based flow cytometry RGS16-Galphao binding, fluorescence; actives lie on both sides | binding response (% of control), % at 10 µM;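 active = below 25% or above 175%, edge rows of some plates excepted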;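 also: Galphao activated by GDP with aluminum fluoride before binding; 100% = wells without compound and 0% = beads without RGS; some results beyond the cut were filed as inactive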
PKD1 kinase inh – inhibitors of human PKD1 kinase, biochemical, fluorescence polarization. PKD1 kinase fluorescence polarization assay. 200,000 compounds, 0.056% hits. Serine/threonine-protein kinase D1 (Homo sapiens), Q15139. inhibition, %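 (about 10 µM by stock and volumes)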;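 active = inhibition of 50% or more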;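 also: controls were vehicle for no effect and a reference inhibitor for full effect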
Target sequence (Q15139 whole entry, looked up): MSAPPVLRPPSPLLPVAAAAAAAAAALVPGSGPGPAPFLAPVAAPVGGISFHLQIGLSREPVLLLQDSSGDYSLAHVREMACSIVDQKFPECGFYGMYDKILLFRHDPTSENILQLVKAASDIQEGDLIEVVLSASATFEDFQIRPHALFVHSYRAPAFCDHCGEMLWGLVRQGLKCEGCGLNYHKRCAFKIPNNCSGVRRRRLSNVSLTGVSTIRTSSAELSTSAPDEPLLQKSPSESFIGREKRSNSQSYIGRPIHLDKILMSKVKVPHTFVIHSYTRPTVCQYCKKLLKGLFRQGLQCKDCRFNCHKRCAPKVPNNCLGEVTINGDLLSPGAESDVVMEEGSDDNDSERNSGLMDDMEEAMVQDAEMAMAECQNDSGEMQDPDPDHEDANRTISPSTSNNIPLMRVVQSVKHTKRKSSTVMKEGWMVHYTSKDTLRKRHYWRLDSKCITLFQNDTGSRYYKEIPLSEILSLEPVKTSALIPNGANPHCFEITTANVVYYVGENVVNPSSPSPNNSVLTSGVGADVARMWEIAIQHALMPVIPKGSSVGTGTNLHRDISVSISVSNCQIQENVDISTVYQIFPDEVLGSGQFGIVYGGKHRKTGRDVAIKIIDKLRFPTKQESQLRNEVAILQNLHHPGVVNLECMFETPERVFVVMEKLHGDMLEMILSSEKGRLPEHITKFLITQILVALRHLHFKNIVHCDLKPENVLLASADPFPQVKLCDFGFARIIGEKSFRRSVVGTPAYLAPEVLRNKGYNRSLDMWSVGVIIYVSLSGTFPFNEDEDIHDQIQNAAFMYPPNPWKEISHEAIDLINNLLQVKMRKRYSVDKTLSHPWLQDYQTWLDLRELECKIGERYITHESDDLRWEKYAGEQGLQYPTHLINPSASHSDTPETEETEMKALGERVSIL
INS promoter inh – inhibitors of insulin promoter-driven GFP, primary screen, imaging, TRM-6 cells (human fetal islet line), eGFP reporter, cell count; reporter expression induced with tamoxifen; inhibition, % at 2 µM; 130,000 compounds, 0.9% hits; AID 1273, 2008;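 active = inhibition above the mean plus 3 SD, with well images judged a real hit on visual review, cut at about 60% in these data, passing the limit was not always enough; inconclusive = inhibition over the cutoff but images rejected on review; inactive = inhibition not above the cutoff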
GALR2 agonist – GALR2 receptor agonists, primary screen, cell-based. Galanin receptor type 2 (Homo sapiens), O43603. GALR2-expressing cells, agonist activation read-out. activation, %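 (tested at 5 µM)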. 140,000 compounds, 0.48% hits. AID 803, 2007;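 active = above mean plus 3 SD of all compounds, about 5% in these data, not always enough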;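 also: 0% = vehicle buffer wells and 100% = reference agonist at full effect; tested in CHO reporter cells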
HSV replic up – enhancers of HSV replication in host cells, fold increase, host cell viability. AID 1956, 2009. HSV replication augmentation in cells. 220,000 compounds, 0.005% hits. maximum fold increase;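 active = peak rise of 1.5-fold or more in the series; inconclusive = self-fluorescent or not available for retest; tested in PC3 cells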;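 also: first round at 10 µM; read as green reporter fluorescence; hits show the peak of a series up to 25 µM; 1 = signal of infected wells without compound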
INS promoter inh cell count – second read-out of INS promoter inh, no call of its own (marks repeat the call); normalized cell count, %; measured here: cell count, toxicity; reference of the scale not given here;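 cells exposed to compound for 48 h; stained nuclei by imaging scaled within each plate; lower means fewer cells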
HSV replic up primary fold – recorded beside HSV replic up, whose call it bears; fold increase; compound at 10 µM; measured here: primary screen fold increase 10 uM; tested in PC3 cells;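 GFP signal in the first replicate; 1 = infected wells without compound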
An asterisk follows results filed as active; i = inactive; ? = inconclusive; . = no result given.

Sample of the layout, 7 compounds:
SMILES | RGS16-Gao | PKD1 kinase inh | INS promoter inh | INS promoter inh cell count | GALR2 agonist | HSV replic up | HSV replic up primary fold
Cc1ccc(C(=O)C2=C(O)C(=O)N(c3ncccn3)C2c2ccc(Cl)cc2)o1 (stereo not given) | 99 | 1 | 80* | 122* | -1.6 | i | 1.1
CCCCNc1cc(F)nc(N)n1 | 99 | -1 | 6 | 94 | . | i | 0.9
CC1CCN(c2ccc(N3C(=O)C4CCCCC4C3=O)cc2[N+](=O)[O-])CC1 (stereo not given) | 105 | -5 | -57 | 92 | -0.5 | i | 0.88
Cc1nc2ccc(Nc3ccncc3)cc2s1 | 100 | -8 | 7 | 61 | . | i | 0.9
O=c1[nH]n(-c2ccc(F)cc2)c2ncccc12 | 102 | -14 | -21 | 115 | -3.0 | i | 0.99
Cc1cc(C(=O)COC(=O)CNC(=O)c2ccc(F)cc2)c(C)n1Cc1ccco1 | 106 | 5 | 8 | 101 | 0.4 | i | 0.94
COc1ccc(C(=O)O)cc1F | 106 | 5 | 79* | 115* | -1.2 | i | 0.98

This part in full, previewed entries included:
SMILES | RGS16-Gao | PKD1 kinase inh | INS promoter inh | INS promoter inh cell count | GALR2 agonist | HSV replic up | HSV replic up primary fold
Cc1ccc(C(=O)C2=C(O)C(=O)N(c3ncccn3)C2c2ccc(Cl)cc2)o1 (stereo not given) | 99 | 1 | 80* | 122* | -1.6 | i | 1.1
CCCCNc1cc(F)nc(N)n1 | 99 | -1 | 6 | 94 | . | i | 0.9
CC1CCN(c2ccc(N3C(=O)C4CCCCC4C3=O)cc2[N+](=O)[O-])CC1 (stereo not given) | 105 | -5 | -57 | 92 | -0.5 | i | 0.88
Cc1nc2ccc(Nc3ccncc3)cc2s1 | 100 | -8 | 7 | 61 | . | i | 0.9
O=c1[nH]n(-c2ccc(F)cc2)c2ncccc12 | 102 | -14 | -21 | 115 | -3.0 | i | 0.99
Cc1cc(C(=O)COC(=O)CNC(=O)c2ccc(F)cc2)c(C)n1Cc1ccco1 | 106 | 5 | 8 | 101 | 0.4 | i | 0.94
COc1ccc(C(=O)O)cc1F | 106 | 5 | 79* | 115* | -1.2 | i | 0.98
CCN(CC)c1ccc(NC(=O)OC)cc1 | 101 | 1 | -86 | 134 | -2.6 | . | .
CC(C(=O)Nc1ccc(C#N)cc1)N(C)CC(=O)Nc1cccc(F)c1 (stereo not given) | 102 | -1 | . | . | . | i | 0.99
O=C(c1ccccc1)c1ccc2nc(Nc3ccccc3)c3nncn3c2c1 | 101 | . | . | . | . | i | 1
CCOc1c2ccc(C(=O)NCCc3ccc(C)cc3)cc2nn1CC | 103 | -2 | . | . | -2.5 | i | 0.93
Cc1ccc2nc(-c3ccncc3)cc(C(=O)NCCc3ccc(F)cc3)c2c1 | 101 | 1 | . | . | . | i | 0.61
S=C(Nc1ccc(Nc2ccccc2)cc1)N1CCN(c2ncccn2)CC1 | 107 | -1 | . | . | . | i | 0.8
CC1(OC(=O)C2CCCC2)C(=O)C=C2C=C(c3ccsc3)N(CCN3CCOCC3)C=C2C1=O (stereo not given) | 101 | . | . | . | . | i | 1
COC(=O)c1ccc(CN2C(=O)NC3(CCC(C)CC3)C2=O)o1 (stereo not given) | 99 | -10 | -29 | 127 | -0.3 | i | 0.92
Cc1nnc(NCCc2ccccc2)[nH]c1=O | 102 | -4 | . | . | -4.2 | i | 1
Cc1cccc[n+]1CC(=O)Nc1cccc([N+](=O)[O-])c1 | 110 | 4 | -20 | 95 | . | i | 0.95
CCOc1ccc(C2=C(C=Nc3c(C)n(C)n(-c4ccccc4)c3=O)C(c3ccc(F)cc3)c3ccccc3O2)cc1 (stereo not given) | 96 | 2 | 5 | 57 | 0.9 | ? | .
O=C(CSc1cccc(C(F)(F)F)c1)N1CCN(S(=O)(=O)c2ccccc2)CC1 | 96 | 2 | -18 | 62 | -2.5 | i | 0.96
CC(C)(C)c1ccc(OCC(=O)NC2CCS(=O)(=O)C2)cc1 (stereo not given) | 103 | -1 | 8 | 144 | -1.6 | i | 1.2
COc1ccc(CNC(=O)COC(=O)c2ccco2)cc1 | 103 | 0 | . | . | . | i | 0.84
COc1ccc(NC(C)=O)cc1NC(=O)CSc1nnc(-c2cccnc2)n1C | 96 | 0 | 35 | 117 | -0.6 | i | 0.87
COc1ccccc1CC1(C)NC(=O)N(CC(=O)Nc2cc(C)on2)C1=O (stereo not given) | 94 | 1 | -72 | 121 | 0.2 | i | 0.82
O=S(=O)(c1cccc2cccnc12)N1CCN(c2ccccn2)CC1 | 102 | -2 | -12 | 145 | . | i | 0.98
CCOc1ccc(Nc2nc(C)cc(C)c2C#N)cc1 | 93 | -9 | 31 | 131 | -0.6 | i | 1
Cc1cc(Sc2ncnc(N)c2[N+](=O)[O-])ncn1 | 105 | -6 | . | . | . | i | 0.92
Cc1ccccc1NC(=O)C(=O)N/N=C/c1cccc(Br)c1 | 100 | -5 | -79 | 74 | -0.8 | i | 0.88
COc1ccc(Cl)cc1N(CC(=O)Nc1ccc2c(c1)OCO2)S(C)(=O)=O | 114 | 2 | . | . | 0.3 | i | 0.94
Cc1cc(C)c(S(=O)(=O)c2c(C)cccc2C)c(Cl)n1 | 80 | 1 | -13 | 76 | -2.3 | i | 0.95
Cc1cc2c(c(=O)n1CCc1ccccc1)C(c1ccco1)C(C#N)=C(N)O2 (stereo not given) | 97 | 0 | 31 | 76 | -3.9 | i | 0.93
O=C(O)c1ccc2cccnc2n1 | 101 | -7 | . | . | . | i | 0.97
COc1cccc(-c2nnc(SCc3ccccn3)n2C)c1 | 100 | -6 | . | . | -1.1 | i | 1
CCCCC(Nc1ncnc2ccccc12)C(=O)O (stereo not given) | 104 | -5 | 3 | 71 | -1.8 | i | 1.1
O=C(NN1C(=O)/C(=C/C=C/c2ccco2)SC1=S)c1ccccc1O | 93 | . | . | . | . | i | 1.2
COc1ccc(C)cc1NC(=O)C1CC(=O)OC12CCCCC2 (stereo not given) | 108 | 3 | -45 | 53 | -1.5 | i | 0.85
Cn1nc(C(C)(C)C)cc1C(=O)NCc1cc(F)cc2c1OCOC2 | 98 | . | . | . | . | i | 1.1
C=C(C)C1CC=C(C)/C(=N\NC(=O)CNc2ccccc2OC)C1 (stereo not given) | 123 | 1 | -84 | 101 | 0.4 | i | 0.92
Cc1ccccc1NC(=O)N1C2CCCC1CC(NC(=O)C1CC1)C2 (stereo not given) | 73 | -1 | 23 | 85 | -0.9 | i | 0.92
O=S(=O)(Nc1cccc2cccnc12)c1ccc(S(=O)(=O)N2CCCC2)cc1 | 98 | 7 | . | . | -1.4 | i | 0.58
CCN(CC)CCNc1nc(-c2ccco2)c2c(c1C#N)CC(C)(C)OC2 | 116 | -5 | -18 | 119 | -1.7 | i | 0.97
Cc1ccc(CNC(=O)c2nc3nc(C)cc(C)n3n2)cc1 | 106 | -8 | -21 | 140 | 0.0 | i | 0.92
CCCN(CC#CC(O)(c1ccccc1)c1cccnc1)CCC (stereo not given) | 102 | 1 | . | . | . | i | 1.2
O=C(NNC(=O)c1ccccc1F)c1cccc(Cl)c1 | 104 | -11 | -10 | 116 | -1.2 | i | 1.1
O=C(Nc1nnc(-c2ccco2)o1)c1ccc(N2C(=O)CCC2=O)cc1 | 107 | 2 | 42 | 110 | . | i | 1.1
Cc1cc(C)cc(NC(=O)c2cnn(-c3ccccc3)c2C2CCNCC2)c1 | 79 | -6 | -33 | 39 | . | i | 0.95

Next part; it opens with the 2 that closed the last part.
SMILES | RGS16-Gao | PKD1 kinase inh | INS promoter inh | INS promoter inh cell count | GALR2 agonist | HSV replic up | HSV replic up primary fold
O=C(Nc1nnc(-c2ccco2)o1)c1ccc(N2C(=O)CCC2=O)cc1 | 107 | 2 | 42 | 110 | . | i | 1.1
Cc1cc(C)cc(NC(=O)c2cnn(-c3ccccc3)c2C2CCNCC2)c1 | 79 | -6 | -33 | 39 | . | i | 0.95
CC(C)n1nc(C(=O)Nc2ccccc2N2CCOCC2)c2ccccc2c1=O | 38 | -8 | -41 | 79 | -0.1 | i | 1.1
CCNc1nc(Cl)nc(N(NC(C)=O)C(C)C)n1 | 98 | . | . | . | . | i | 1
CN(C)CC1CCCCC1OC(=O)c1ccc(Cl)cc1 (stereo not given) | 73 | -6 | . | . | -0.8 | i | 1.3
COc1ccc(/C=C/C(=O)CC(O)(c2ccccc2)C(F)(F)F)cc1 (stereo not given) | 114 | -14 | 85* | 96* | -1.6 | i | 0.83
Cc1ccccc1C(=O)Nc1nnc(-c2ccco2)s1 | 108 | -8 | . | . | . | i | 0.99
Cc1cc(Cl)c(O)c(-n2nc3ccccc3n2)c1 | 97 | . | . | . | . | i | 0.87
Cc1ccccc1CC1(CO)CCCN(Cc2ccc3c(c2)OCCO3)C1 (stereo not given) | 99 | 1 | . | . | . | i | 1.1
COC(=O)c1cc(NC(=O)C(C)c2ccc(CC(C)C)cc2)ccc1O (stereo not given) | 41 | -3 | . | . | . | i | 0.96
CCOC(=O)C1CCN(C(c2cccc(F)c2)c2sc3nc(C)nn3c2O)CC1 (stereo not given) | 97 | -9 | . | . | -1.2 | i | 0.8
Cc1nc2ccccc2n1C1CC(=O)N(N(C)C)C1=O (stereo not given) | 86 | 0 | 50 | 113 | -2.5 | i | 1.4
CCOCCCNCC(=O)N1CCN(S(=O)(=O)c2ccc(C)cc2)CC1 | 103 | 4 | -337 | 9 | -1.2 | i | 1.1
CCCc1cc(=O)[nH]c(SCC(=O)N(CC)C2CCS(=O)(=O)C2)n1 (stereo not given) | 100 | -7 | -86 | 165 | -1.7 | i | 0.97
NS(=O)(=O)c1cccc(NC(=O)CNC(=O)CC23CC4CC(CC(C4)C2)C3)c1 | 101 | 2 | 7 | 91 | . | i | 0.89
COc1ccc2c(c1)C=C(C(=O)NCc1ccc(Cl)cc1)CO2 | 103 | 5 | 0 | 106 | -3.1 | i | 0.73
CCn1c(O)c(/C=N/N=C2CCCCC2)c2cc(C3=NNC(=O)CC3)ccc21 | 103 | . | . | . | . | i | 1.3
Cc1nn(C)c(C)c1S(=O)(=O)N1CCc2ccccc21 | 100 | 1 | . | . | -0.1 | i | 0.85
O=C(CC1C(=O)NCCN1Cc1ccc(F)cc1)NCCOc1cccnc1 (stereo not given) | 101 | -9 | . | . | . | i | 1
COc1ccc(CNC(=O)C/C(C)=N/NC(=O)COc2ccc(Br)cc2)cc1 | 108 | -7 | . | . | . | i | 0.93
CSc1ccccc1NC(=O)CN(C)CC(=O)NCc1ccccc1 | 103 | -6 | . | . | . | i | 1
CCOc1cc(C2c3c(oc4ccccc4c3=O)C(=O)N2c2nccs2)ccc1O (stereo not given) | 94 | . | . | . | . | i | 1.3
Cc1ccc(C(=O)COC(=O)CCC(=O)NC2CCCCC2)cc1C | 99 | -5 | -10 | 74 | -0.8 | i | 1
COc1ccc(C2NC(=O)c3ccccc3O2)c(OC)c1OC (stereo not given) | 100 | -5 | 18 | 120 | -1.9 | i | 0.82
Cn1nc(CC(=O)NC2CCCCCC2)c2ccccc2c1=O | 104 | -4 | . | . | -2.1 | i | 0.94
Cc1c(N=C2SC(CC(=O)Nc3ccccc3)C(=O)N2CCN2CCOCC2)c(=O)n(-c2ccccc2)n1C (stereo not given) | 106 | -7 | . | . | . | i | 0.99
CC(=O)CS(=O)(=O)c1ccc(Oc2ccc(S(=O)(=O)CC(C)=O)cc2)cc1 | 92 | -4 | 27 | 132 | -3.6 | i | 0.83
Cc1cc(-c2ccccc2)nc(Oc2cccc(C(F)(F)F)c2)c1S(C)(=O)=O | 94 | -5 | -30 | 94 | 0.5 | i | 0.93
CC1CCC(NC(=O)C2CCN(c3cnccn3)CC2)CC1 (stereo not given) | 96 | -11 | 26 | 94 | -1.4 | i | 0.88
COc1cccc(Cl)c1NC(=O)N1CCN(c2cc(C)nc3ccccc23)CC1 | 104 | . | . | . | . | i | 0.82
O=C(CCCN1CCOCC1)c1ccc2c(c1)OCCO2 | 103 | -4 | . | . | -2.4 | i | 0.96
O=C(Cc1cc(C(=O)O)c2ccccc2n1)Nc1ccccc1 | 102 | -2 | 12 | 136 | . | i | 1
Brc1ccc(Oc2ncc(CN3CCN(c4ccccc4)CC3)s2)cc1 | 105 | 2 | -51 | 84 | -1.9 | i | 0.94
COCc1cc(C)nc(Nc2ccc(C)cc2C)c1C#N | 68 | -3 | -5 | 127 | -0.6 | i | 1.1
Nc1cc(=O)n(Cc2ccccc2)c(=O)n1-c1ccc(F)cc1 | 97 | . | . | . | . | i | 1

Screening data: PubChem, several laboratories
